# Compound activity deposited in PubChem BioAssay by ICCB-Longwood Screening Facility, Harvard Medical School.
# GIV-Gai inh: inhibitors of GIV peptide binding to Galpha-i3, primary screen, biochemical, fluorescence polarization, FITC-GIV GBA peptide, rat Galphai3; percent of control (FP), % (concentration not given with the values); 90 min; active compounds read low; scaled: aluminum fluoride 0%, vehicle 100%; Guanine nucleotide-binding protein G(i) subunit alpha-3 (Rattus norvegicus), P08753; 210,000 tested, 0.42% active;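 active means replicate mean at 85% of control or lower, very high polarization wells dropped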;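 further: wells of about 15 µL received 100 nL stock; the first replicate is given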
# Target sequence (P08753 whole entry, looked up): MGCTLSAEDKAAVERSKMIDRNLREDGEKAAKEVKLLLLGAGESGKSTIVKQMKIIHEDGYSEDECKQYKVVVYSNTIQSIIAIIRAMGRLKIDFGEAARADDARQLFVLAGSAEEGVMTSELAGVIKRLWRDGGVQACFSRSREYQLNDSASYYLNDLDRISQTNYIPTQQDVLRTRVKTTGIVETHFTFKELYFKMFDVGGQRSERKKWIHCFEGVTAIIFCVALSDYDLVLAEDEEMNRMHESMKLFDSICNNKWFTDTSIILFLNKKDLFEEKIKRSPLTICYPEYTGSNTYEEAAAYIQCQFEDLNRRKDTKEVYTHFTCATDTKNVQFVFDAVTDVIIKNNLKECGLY
# Sa growth 42C: S. aureus growth inhibition at 42 and 30 °C, primary screen, LtaS inhibitor project, RN4220, two temperatures. OD600, 20 h, 42 °C; active compounds read low. relative growth, % (test concentration not listed). AID 720641, 2013. 170,000 tested, 0.53% active;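 active means growth at 42 °C up to 50% and 20 or more points under that at 30 °C, or under 10% at both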;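 further: 300 nL library stock went into each well; scaled to the means of positive and negative controls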
# HCMV UL50-53 inh: inhibitors of HCMV UL50-UL53 interaction, biochemical, HTRF; HCMV UL50-UL53 nuclear egress complex (human cytomegalovirus); normalized percent inhibition; inhibition, % (test concentration not listed); 190,000 tested, 0.15% active; AID 1918969, 2023;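 active means both replicates at 50% or more, plus weaker picks with an unusually low signal ratio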;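 further: stock transfer was 100 nL into about 20 µL; 0% = negative control wells and 100% = wells with untagged competitor protein; inactives centre near -12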
# Sa growth 42C second temp: recorded beside Sa growth 42C, whose call it bears; relative growth, %; measured here: growth at 30 °C;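 optical density after 20 h as mean of two plates; 100% = untreated growth and lower means inhibition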
# An asterisk follows results filed as active; · = not tested or not shown; & = joins results of further samples.
# Start of the data: the first two entries, to show the layout:
SMILES,GIV-Gai inh,Sa growth 42C,Sa growth 42C second temp,HCMV UL50-53 inh
Cc1cc(C)c2c(CC(=O)Nc3ccc(S(=O)(=O)N4CCCC(C)C4)cc3)coc2c1 (stereo not given),108,104,101,-7
COC(=O)CC1(O)C(=O)C=C(c2ccc(C)cc2)N1c1ccccc1OC (stereo not given),·,106,81,-18

# The list itself, from the start:
SMILES,GIV-Gai inh,Sa growth 42C,Sa growth 42C second temp,HCMV UL50-53 inh
Cc1cc(C)c2c(CC(=O)Nc3ccc(S(=O)(=O)N4CCCC(C)C4)cc3)coc2c1 (stereo not given),108,104,101,-7
COC(=O)CC1(O)C(=O)C=C(c2ccc(C)cc2)N1c1ccccc1OC (stereo not given),·,106,81,-18
Cc1cc(C(=O)CSc2nnc(CN(c3ccc(F)cc3)S(C)(=O)=O)n2C)c(C)n1C,104,·,·,-9
COc1cc2ncnc(NCCCN3CCOCC3)c2cc1OC,102,78,93,-14
O=C(Nc1nonc1-c1ccc(Cl)cc1)c1ccccc1F,100,95,88,6
Cn1c(C(=O)N2CCC(C(=O)NCc3ccccc3)CC2)cc2sccc21,105,96,81,·
CC1CCCN(C(=O)COC(=O)C2=COCCO2)C1 (stereo not given),·,103,100,-4
CCOC(=O)c1[nH]c(C)c(S(=O)(=O)Nc2cccc(C)n2)c1C,106,·,·,-23
Cc1ccc(-c2c(C(F)(F)F)nn3c(N4CCCCC4)cc(C)nc23)cc1,99,·,·,-5
Cc1ccccc1CNC(=O)c1ccc(CS(=O)Cc2ccc(Cl)cc2)o1 (stereo not given),107,119,82,·
CC(=O)N1CCc2cc(CNC(=O)Cc3ccc(F)cc3)ccc21,104,115,80,·
CC(C)Cc1nn2c(=O)cc(CSc3nc(-c4ccccc4F)nc4cc(=O)[nH]n34)nc2s1,101,76,49,-25
OC(CN1CCSCC1)C(F)(F)F (stereo not given),101,·,·,-17
O=C(Nc1ccc2c(c1)oc1ccccc12)c1ccc2c(c1)OCCO2,103,·,·,11
Cn1c(=O)c2c(nc(NCCN3CCOCC3)n2C)n(C)c1=O,104,106,94,-9
O=C1OC(Cc2ccccc2Cl)c2cc[nH]c(=O)c21 (stereo not given),·,78,83,-36
CCCN(CCC)S(=O)(=O)c1ccc2c(c1)oc(=O)n2CC(=O)OCC,103,98,90,·
Cc1cc(S(=O)(=O)Nc2ccc(-c3ccc(N4CCCC4)nn3)cc2)c(C)cc1Cl,102,·,·,-27
Oc1cccc(/C=N/c2c(-c3ccco3)nc3ccccn23)c1,110,93,68,-22
CC(NC(=O)CN1CCN(C/C=C/c2ccccc2)CC1)c1ccccc1 (stereo not given),108,101,98,-34
COc1cccc(NC(=O)Cn2c(=O)n(Cc3ccccc3)c(=O)c3ccccc32)c1,104,107,92,6
CC(C)(C)NCC(O)COc1cccc2[nH]c(=O)[nH]c12 (stereo not given),106,·,·,-6&-16
C(=Nc1ccc(Nc2ccccc2)cc1)c1ccc2ncccc2c1,·,97,81,-25
CSc1sc2c(N)nc(N)nc2c1C#N,108,116,77,9
COc1ccc(-n2ccnc(NCCc3ccc(Cl)cc3)c2=O)cc1OC,98,106,86,·
CC(NC(=O)c1ccc(C(F)(F)F)cc1)C(c1ccccc1)N1CCOCC1 (stereo not given),·,80,78,-31
Cc1ccc2nc(-c3ccc(NC(=O)COCC(=O)O)cc3)sc2c1,96,113,86,-33
CCN(CC)C(=O)Cn1ncc2c([nH]c3ccc(C)cc32)c1=O,104,88,89,·
O=C(NCc1ccc2c(c1)OCO2)C1CC(=O)N(Cc2ccc(F)cc2)C1 (stereo not given),101,100,84,40
COc1ccc(NC(=O)C2CC(c3ccc(OC)cc3)=NO2)cc1 (stereo not given),95,89,88,-36
O=S(=O)(c1cccc2cccnc12)N(CCO)CCO,106,89,99,0
CCOc1cc(C=C2C(=O)NC(=S)NC2=O)cc(Cl)c1OCCOc1ccccc1,106,·,·,-12
Cn1c(=O)c2cc(C(=O)NC3CCCCCC3)sc2c2ccc(Cl)cc21,106,116,96,·
CC1CS(=O)(=O)N(c2ccc(C(=O)N3CCc4ccccc43)cc2)C1=O (stereo not given),102,·,·,-20
Cc1ccc(NC(=O)Nc2cccc(-c3noc(C4CCC4)n3)c2)cc1,103,·,·,-33
CC1Cc2ccccc2N1C(=O)c1cc(S(=O)(=O)N2CCCC2)cn1C (stereo not given),107,96,94,-11
Cc1ccc(NC(=O)CSc2nc3ccccc3n2CC(=O)N2CCC(C)CC2)cc1C,103,95,91,·
Cc1cn2c(=O)c(C(=O)NCCCc3ccccc3)cnc2s1,103,98,90,-14
N=C(N)Sc1nc(N2CCCCC2)nc(N2CCCCC2)n1,100,60,39,-9
O=c1c2c3c(sc2ncn1-n1cccc1)CCCC3,·,113,87,-28
NC(=O)CN1c2cccc3cccc(c23)S1(=O)=O,104,96,103,-29
CCNc1nc(OCCO)nc(N(C)C)n1,104,71,95,·
Clc1ccc(-c2noc(-c3ccc(NCCC4=CCCCC4)nn3)n2)cc1,99,·,·,-20
COCCCNC(=O)Cn1c(=O)n(CCCC(=O)NCc2ccc(C)cc2)c(=O)c2ccccc21,104,93,99,-12
CC(C)Cc1nn2c(=O)cc(COC(=O)c3ccc4c(c3)OCO4)nc2s1,100,90,94,·
COc1ccc(CC(=O)NCc2nc3cccnc3n2Cc2ccc(C)cc2)cc1OC,112,106,87,·
COC(=O)C1=C(C)N=C2SC(C#N)=C(N)N2C1c1ccccc1 (stereo not given),107,95,83,-76
CC1=C(C(=O)OC2CCCCC2)C(c2ccco2)C2=C(CC(c3ccc(F)cc3)CC2=O)N1 (stereo not given),100,98,89,0
Cc1cccc(N2CCN(C(=O)CCNS(=O)(=O)c3ccc4c(c3)oc(=O)n4C)CC2C)c1 (stereo not given),101,104,89,-4
CCCCCn1c(CCNC(=O)c2ccc(F)cc2)nc2ccccc21,102,101,80,-15
COC(=O)c1cc(S(=O)(=O)N2CCN(c3ccc(C)cc3C)CC2)cn1C,109,122,94,·
CCOC(=O)c1ccc(NC(=O)c2cc(=O)c3cc(CC)ccc3o2)cc1,106,97,86,-22
CC(C)c1ccc(NC(=O)c2cn(C3CCCCC3)c(=O)c3c2c2ccccc2n3C)cc1,102,94,89,-8
COc1ccc(S(=O)(=O)N2CCc3nc(N4CCCCC4)ncc3C2)cc1OC,107,·,·,-12
COc1ccc2nc(SCc3nnc(-c4ccccc4)o3)c(C#N)cc2c1,98,104,97,-4
COc1ccc(C(F)(F)F)cc1NC(=O)CC1(CC(=O)O)CCCCC1,101,111,85,-1
COc1ccccc1Nc1nn2c(=O)c3ccc(C(=O)N4CCC(C)CC4)cc3nc2s1,107,103,57,·
CC(c1ccccc1)N1C(=O)c2ccccc2C1=O (stereo not given),105,104,92,-23
CCCC(=O)C1CCN(Cc2ccccc2)CC1,160,106,79,-17
O=C(O)/C=C/c1cccc(Br)c1,·,105,85,-38

# Only HCMV UL50-53 inh, Sa growth 42C second temp and GIV-Gai inh, for four of the compounds above:
mol | HCMV UL50-53 inh | Sa growth 42C second temp | GIV-Gai inh
CCCC(=O)C1CCN(Cc2ccccc2)CC1 | -17 | 79 | 160
COc1ccc2nc(SCc3nnc(-c4ccccc4)o3)c(C#N)cc2c1 | -4 | 97 | 98
CCOC(=O)c1ccc(NC(=O)c2cc(=O)c3cc(CC)ccc3o2)cc1 | -22 | 86 | 106
COc1ccc(C(F)(F)F)cc1NC(=O)CC1(CC(=O)O)CCCCC1 | -1 | 85 | 101

# More compounds.
SMILES,GIV-Gai inh,Sa growth 42C,Sa growth 42C second temp,HCMV UL50-53 inh
N#CCSc1nc(-c2ccccc2)cc(=O)[nH]1,111,104,85,-83
COc1ccc(C2OC(=O)CC2C(=O)NCc2ccc(F)cc2)cc1OC (stereo not given),110,102,93,-6
O=C1CCCc2nc(N3CCN(c4ccccc4F)CC3)ncc21,82*,·,·,-28
CCOC(=O)c1ccccc1NC(=O)c1sc2nc(C)nc(N3CCOCC3)c2c1C,104,·,·,-27
O=c1[nH]nc(NCc2nc3ncccc3[nH]2)c2ccccc12,107,98,81,·
O=C(c1noc2c1CCCCC2)N1CCCc2ccccc21,107,100,108,6
Cc1ccc(/C=C2\SC(=S)N(CCCCC(=O)O)C2=O)o1,·,85,78,-103
Cc1ccc(CNC(=O)C2CCN(S(=O)(=O)c3ccc4nc5c(c(C(=O)O)c4c3)CC(C)CC5)CC2)cc1 (stereo not given),107,100,81,-13
Cc1cc(C)n2nc(CNS(=O)(=O)c3cccc(Cl)c3)nc2n1,102,101,85,6
O=C(c1ccccc1)N1CCN(c2nc(-c3ccccc3)c3cc(Br)ccc3n2)CC1,·,116,82,-10
COc1cc2c(cc1OC)C(C(=O)Nc1cccc(Cl)c1)C(c1cccnc1)N(C)C2=O (stereo not given),97,·,·,-19
C=CCNc1nc(N)c(C(=O)c2ccc(OC)cc2)s1,105,93,98,-18
CC(C)CC(=O)Nc1nnc(S(=O)(=O)N2CCC(C)CC2)s1,109,·,·,-19
O=C(NC1CCCC1)c1ccc(CSCc2cccc(Cl)c2)o1,101,86,83,·
Cc1ccc(-c2csc(N3C(=O)CN=C3SCc3ccc(Cl)cc3)n2)cc1,109,95,90,·
O=C(CCc1nc2ccccc2[nH]1)Nc1ccc2c(c1)OCCO2,100,86,91,0
C=CCNC(=O)CN1CCC(n2nnc3cc(C(F)(F)F)ccc32)CC1,102,103,70,-10
COc1ccc2nc3oc(C(=O)NCCc4ccc(Cl)cc4)cc3cc2c1,92,·,·,1
CCCC(=O)Nc1ccc(C(=O)Cn2nnc(-c3cccc(F)c3)n2)cc1,·,114,102,-12
CCOC(=O)c1noc(C)c1-c1csc(COc2ccc(Cl)cc2)n1,106,109,87,3
FC(F)(F)c1cccc(NN=C2CCSCC2)n1,109,102,84,-10
Cc1ccc(C(=O)CC2(O)C(=O)N(Cc3ccccc3F)c3ccccc32)cc1 (stereo not given),112,86,84,-34
CC(C)N(C)c1ncnc2sc3c(c12)CCC3,·,116,89,-16
Cc1ccccc1OCC(O)Cn1c(SC(C)C)nc2c1c(=O)[nH]c(=O)n2C (stereo not given),102,·,·,-15
CCCCC1CC1C(=O)Nc1ncc2c(n1)CC(C)(C)CC2=O (stereo not given),100,106,98,-1
CCOc1ccc(S(=O)(=O)N2CCN(Cc3nc4ccc(C)cc4o3)CC2)cc1,105,119,99,·
CC(C)NC(=O)Cc1ccc(-n2c(=O)c3ccccc3n(CC(=O)Nc3ccc4c(c3)OCCO4)c2=O)cc1,103,·,·,-17
O=C(COC(=O)/C=C/c1ccco1)Nc1ccc(Cl)cc1,·,105,99,-1
CCN(c1ccc(OC)cc1)S(=O)(=O)c1ccc2c(c1)N(C(C)=O)CCO2,100,90,77,-25
Cn1c(=O)c(/C(N)=N/O)cn(-c2ccccc2)c1=O,104,108,97,-32
Cn1c2ccccc2c2nnc(SCC(=O)c3ccc(Cl)cc3)nc21,114,101,102,-23
CC(=O)c1ccc(S(=O)(=O)Nc2ccc(-c3ccc(N4CCCCCC4)nn3)cc2)cc1,108,111,91,·
CS(=O)(=O)N1Cc2ccccc2CC1C(=O)OCC(=O)N1CCc2ccccc21 (stereo not given),·,74,102,-20
Cc1nc2nc3c(c(Nc4ccccc4Cl)n2n1)CCCC3,115,·,·,-5
Cn1c(C(=O)NCc2ccccc2Cl)cc2oc3ccccc3c21,95,89,82,-21
Nc1ccc(S(=O)(=O)Nc2ccnn2-c2ccccc2)cc1,103,·,·,-8&-24

# Rewritten as labelled records: part of the list above
Cn1c(C(=O)NCc2ccccc2Cl)cc2oc3ccccc3c21
  GIV-Gai inh = 95
  Sa growth 42C = 89
  Sa growth 42C second temp = 82
  HCMV UL50-53 inh = -21

Cn1c(=O)c(/C(N)=N/O)cn(-c2ccccc2)c1=O
  GIV-Gai inh = 104
  Sa growth 42C = 108
  Sa growth 42C second temp = 97
  HCMV UL50-53 inh = -32

Cc1nc2nc3c(c(Nc4ccccc4Cl)n2n1)CCCC3
  GIV-Gai inh = 115
  Sa growth 42C = ·
  Sa growth 42C second temp = ·
  HCMV UL50-53 inh = -5

CCOc1ccc(S(=O)(=O)N2CCN(Cc3nc4ccc(C)cc4o3)CC2)cc1
  GIV-Gai inh = 105
  Sa growth 42C = 119
  Sa growth 42C second temp = 99
  HCMV UL50-53 inh = ·

# Later entries.
SMILES,GIV-Gai inh,Sa growth 42C,Sa growth 42C second temp,HCMV UL50-53 inh
CC(=O)c1ccc(NC(=O)CSc2cn(CC(=O)N3CCCCC3)c3ccccc23)cc1,111,101,88,·
CCN(CC)CCn1c2c(c(SCC(=O)Nc3nc(C)cs3)nc1=O)CCCC2,104,72,84,-49
CC(C)c1ccc(NC(=O)CCNS(=O)(=O)c2ccc3c(c2)CCCC(=O)N3)cc1,107,116,97,·
CCSc1ccc2nnc(-c3ccc(OC)c(OC)c3)n2n1,106,95,89,-11
COc1ccc(Nc2nc(N3CCCC3)nc3ccccc23)c(OC)c1,109,90,86,0
Cc1cccc(C(=O)Nc2ccc(O)cc2)c1,·,105,94,-13
Cc1c(NC(=O)C2CCN(S(=O)(=O)c3cnc[nH]3)CC2)c(=O)n(-c2ccccc2)n1C,99,109,90,4
CC(C)c1ccc(/C=C(\C#N)c2nc(-c3cc4ccccc4oc3=O)cs2)cc1,106,104,91,-33
O=C(C1CCN(c2nc3ccccc3n3cccc23)CC1)N1CCc2ccccc21,104,97,85,-13
CCc1cc(C(Nc2nc(C)cc(C)n2)c2cccc(F)c2)c(NC(=O)c2ccccc2)s1 (stereo not given),107,·,·,-30
